VCAM-1 up imaging: boosters of cytokine-driven VCAM-1 levels – imaging, high-content imaging, pooled HUVEC, TNFa stimulus (AID 457). 10,000 compounds, 0.2% hits. calls only. Pooled HUVEC, TNFa-induced VCAM-1 immunofluorescence imaging; hits of this screen are not shown here;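 active = a top-ranked rise in VCAM-1 staining upheld on image or statistical review; inactive = the rest, including candidates rejected on review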;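 also: compounds tested at 5 µM in the well; cells exposed to compound for 24 hours before fixing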
FPRL1 ligand: binds the human formylpeptide receptor-like-1 FPRL1 | P25090 | FPRL1-expressing cells, fluorescent ligand binding inhibition, flow cytometry | inhibition, %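 (tested at 6.7 µM)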 | 24,000 compounds, 0.3% hits | AID 441;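 also: 0% = buffer alone and 100% = receptor blocker peptide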
Target sequence (P25090 whole entry, looked up): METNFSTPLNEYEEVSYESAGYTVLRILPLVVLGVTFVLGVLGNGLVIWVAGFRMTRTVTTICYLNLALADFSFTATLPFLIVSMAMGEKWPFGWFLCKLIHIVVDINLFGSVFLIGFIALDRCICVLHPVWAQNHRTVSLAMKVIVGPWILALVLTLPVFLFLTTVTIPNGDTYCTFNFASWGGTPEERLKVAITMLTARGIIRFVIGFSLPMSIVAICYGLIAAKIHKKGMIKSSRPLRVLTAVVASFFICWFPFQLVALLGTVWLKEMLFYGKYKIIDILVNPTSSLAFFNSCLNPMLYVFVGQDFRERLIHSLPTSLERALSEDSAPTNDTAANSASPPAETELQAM
VCAM-1 inhibition: inhibitors of TNFa-induced VCAM-1 surface display, cell-based, plate reader, pooled HUVEC, TNFa stimulus (AID 454); 10,000 compounds, 0.2% hits; HUVEC TNFa-induced VCAM-1 surface immunofluorescence, plate reader; numbers were filed only for top-ranked candidate wells; inhibition, % at 5 µM;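 active = compound among top-ranked inhibitors of TNF-induced VCAM-1 adhesion protein staining, with the hit upheld by image or statistical review; inactive = the rest, including hits rejected on review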;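 also: 0% = TNFa with vehicle and 100% = cells without TNFa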
VCAM-1 imaging: suppression of endothelial VCAM-1 upregulation – imaging, high-content imaging, pooled HUVEC, TNFa stimulus (AID 456); HUVEC TNFa-induced VCAM-1 surface expression, immunofluorescence imaging; numbers were filed only for top-ranked candidate wells; inhibition, % at 5 µM; hits with a dose series show IC50 in µM; 10,000 compounds, 0.2% hits;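 active = top tenth filtered wells with inhibition above zero that passed visual or statistical confirmation; inactive = the rest, including hits rejected on review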;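 also: 0% = stimulated vehicle wells and 100% = unstimulated cells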
FPR binder: ligands of human FPR, also counter-screen for FPRL1 ligands | P21462 | FPR-expressing cells, fluorescent ligand binding, flow cytometry | inhibition, %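 (tested at 6.7 µM)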 | 24,000 compounds, 0.74% hits;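 also: 0% = buffer wells and 100% = receptor blocker peptide wells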
Target sequence (P21462 whole entry, looked up): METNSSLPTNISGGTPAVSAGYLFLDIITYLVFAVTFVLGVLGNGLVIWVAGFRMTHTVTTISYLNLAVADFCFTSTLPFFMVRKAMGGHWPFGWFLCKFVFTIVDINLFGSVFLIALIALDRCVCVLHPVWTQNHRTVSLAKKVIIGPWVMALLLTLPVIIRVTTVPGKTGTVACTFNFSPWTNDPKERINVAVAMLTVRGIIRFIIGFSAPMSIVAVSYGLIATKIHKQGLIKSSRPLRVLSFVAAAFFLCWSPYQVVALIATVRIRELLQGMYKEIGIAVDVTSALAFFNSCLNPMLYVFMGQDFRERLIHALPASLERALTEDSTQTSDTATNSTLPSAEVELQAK
An asterisk follows results filed as active; i = inactive; . = no result given.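 The calls were made as follows, unless noted: active = mean above 30%; inconclusive = self-fluorescent; inactive = the rest.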 This is a subset, so the mix of outcomes need not match the whole.

Structure | VCAM-1 up imaging | FPRL1 ligand | VCAM-1 inhibition | VCAM-1 imaging | FPR binder
COc1cc(OC)c(C2N(c3cc(C)on3)C(=O)C3CCCN32)cc1OC (configuration not stated) | . | 1 | . | . | -3
O=C(NO)c1ccc(OC(F)F)cc1 | . | 0 | . | . | 2
CCCCNC(=O)c1cc2c(-c3ccc(Cl)cc3)nn(C)c2s1 | . | 0 | . | . | 11
C=CCOc1ccc(/C(O)=C2\C(=O)C(=O)N(CCCOC)C2c2ccc(O)c(OC)c2)cc1 (configuration not stated) | . | 1 | . | . | -3
CC(Sc1nc(-c2ccccc2)cc(C(F)(F)F)n1)C(=O)N1CCC(C(N)=O)CC1 (configuration not stated) | i | -6 | i | i | -1
Cc1c(C(=O)NCC2CCCO2)oc2ccc(S(=O)(=O)N3CC(C)CC(C)C3)cc12 (configuration not stated) | . | -18 | . | . | -4
O=C(Cn1ncc2c1-c1ccccc1OC2)N1CCc2ccccc21 | i | 2 | i | i | 4
COc1ccc(NC(=O)N(Cc2ccc(C)cc2)Cc2ccccn2)c(OC)c1 | . | -2 | . | . | -3
COc1cc2c(cc1NCc1ccccn1)oc1ccccc12 | i | -3 | i | i | 0
Cc1nn(-c2ccccn2)c2c1-c1nc(N)ncc1CC2 | . | 0 | . | . | -6
CCC1=C(C(=O)OC)C(c2cc(OC)ccc2OC)C(C#N)=C(N)O1 (configuration not stated) | i | -1 | i | i | 2
CCC1c2ccc(C)n2CCN1C(=O)Nc1ccc(F)cc1 (configuration not stated) | . | -1 | . | . | -4
CSc1nsc(SC)c1NC(=O)OCc1ccccc1 | . | -2 | . | . | -3
C=CCn1c(NC(=O)c2ccc(C)cc2)c(C#N)sc1=N | . | -6 | . | . | 0
Nc1nnc(-c2cc3ccccc3oc2=O)s1 | i | 18 | i | i | 25
COc1ccc(C2C(C(=O)c3cccs3)=C(O)C(=O)N2c2nncs2)cc1 (configuration not stated) | . | -5 | . | . | 19
Cc1cccc(Cc2nnc(NC(=O)c3cccc(S(=O)(=O)N4CCOCC4)c3)s2)c1 | i | 3 | i | i | -2
O=C(Nc1nncs1)c1ccc(N2C(=O)C3C4C=CC(C4)C3C2=O)cc1 (configuration not stated) | . | 7 | . | . | 8
C/C(O)=c1/ccc2cccc3nc(C)nc1c23 | . | -11 | . | . | -5
N#C/C(=C(/O)CN1CCOCC1)c1nc2ccccc2s1 | i | 5 | i | i | -2
COCC(=O)N(Cc1ccc(OC)cc1)Cc1nc2ccccc2c(=O)[nH]1 | i | -2 | i | i | 6
O=C(CSc1nc(O)c(Cc2ccccc2F)c(=O)[nH]1)N1CCCCCC1 | . | 2 | . | . | 7
CC(C)OC(=O)CN1C(=O)C(C)(C)Oc2ccc(C(=O)NC3CC3)cc21 | i | 1 | i | i | 6
COc1ccc2c(c1)CCc1c(C(=O)NCCc3ccc(OC)c(OC)c3)noc1-2 | . | 14 | . | . | 14
COc1ccc(Cn2nnnc2C(c2cccs2)N2CCOCC2)cc1 (configuration not stated) | i | 3 | i | i | -5
COc1ccc(C2=Nn3c(nnc3-c3cccnc3)SC2)cc1 | i | -2 | i | i | -3
O=C(CCN1C(=O)C2C3C=CC(C3)C2C1=O)NCCc1ccccc1 (configuration not stated) | . | 1 | . | . | -1
COc1ccc(-c2nc3n(n2)C(c2ccccc2Cl)C(C(N)=O)=C(C)N3)cc1 (configuration not stated) | . | 6 | . | . | 10
COc1ccc(Cn2c(CCCO)nc3ccccc32)cc1OC | i | -6 | i | i | 0
COc1cccc(NC(=O)c2ccccc2NS(C)(=O)=O)c1 | i | -5 | i | i | -4
CCOC(=O)c1c(C)c(C(=O)NCC2CCCO2)c(C)n1C (configuration not stated) | i | -1 | i | i | -1
CN(C)S(=O)(=O)c1ccc(NC(=O)C2COc3ccccc3O2)cc1 (configuration not stated) | . | 1 | . | . | 1
CCOC(=O)c1cc2c(=O)n3ccccc3nc2n(CCOC)c1=NC(=O)C(C)(C)C | . | 5 | . | . | -11
Nc1cc(C(=O)O)ccc1Nc1ccccc1 | i | 0 | i | i | -2
c1coc(CN2CN=C(Nc3nc4ccccc4s3)NC2)c1 | i | -7 | i | i | -9
CC1CC(C)CN(C(=O)Cn2c(=O)n(CCCCC(=O)NCc3ccco3)c(=O)c3ccccc32)C1 (configuration not stated) | . | -4 | . | . | -2
CC1Oc2ccccc2N(Cc2ccccc2Cl)C1=O (configuration not stated) | i | 2 | i | i | 22
Cc1nn(Cc2ccc(F)cc2)c(C)c1NC(=O)c1cc(-c2ccc3c(c2)OCO3)on1 | . | 2 | . | . | 0
Cc1ccc(N(CN2CCCC2=O)C(=O)c2ccc(OC(C)C)cc2)cc1 | . | -4 | . | . | -7
CC(=O)N1c2ccc(S(=O)(=O)CCC(=O)O)cc2CC1C (configuration not stated) | . | -1 | . | . | 6

Part of the list above in order of SMILES length, rising.
Structure | VCAM-1 up imaging | FPRL1 ligand | VCAM-1 inhibition | VCAM-1 imaging | FPR binder
Nc1nnc(-c2cc3ccccc3oc2=O)s1 | i | 18 | i | i | 25
CC1Oc2ccccc2N(Cc2ccccc2Cl)C1=O (configuration not stated) | i | 2 | i | i | 22
N#C/C(=C(/O)CN1CCOCC1)c1nc2ccccc2s1 | i | 5 | i | i | -2
COc1ccc(Cn2nnnc2C(c2cccs2)N2CCOCC2)cc1 (configuration not stated) | i | 3 | i | i | -5
CN(C)S(=O)(=O)c1ccc(NC(=O)C2COc3ccccc3O2)cc1 (configuration not stated) | . | 1 | . | . | 1
CCC1=C(C(=O)OC)C(c2cc(OC)ccc2OC)C(C#N)=C(N)O1 (configuration not stated) | i | -1 | i | i | 2
O=C(Nc1nncs1)c1ccc(N2C(=O)C3C4C=CC(C4)C3C2=O)cc1 (configuration not stated) | . | 7 | . | . | 8
CC(C)OC(=O)CN1C(=O)C(C)(C)Oc2ccc(C(=O)NC3CC3)cc21 | i | 1 | i | i | 6
CCOC(=O)c1cc2c(=O)n3ccccc3nc2n(CCOC)c1=NC(=O)C(C)(C)C | . | 5 | . | . | -11
Cc1cccc(Cc2nnc(NC(=O)c3cccc(S(=O)(=O)N4CCOCC4)c3)s2)c1 | i | 3 | i | i | -2
Cc1c(C(=O)NCC2CCCO2)oc2ccc(S(=O)(=O)N3CC(C)CC(C)C3)cc12 (configuration not stated) | . | -18 | . | . | -4
CC1CC(C)CN(C(=O)Cn2c(=O)n(CCCCC(=O)NCc3ccco3)c(=O)c3ccccc32)C1 (configuration not stated) | . | -4 | . | . | -2

Later entries:
Structure | VCAM-1 up imaging | FPRL1 ligand | VCAM-1 inhibition | VCAM-1 imaging | FPR binder
CCOc1ccc(N2CC(C(=O)Nc3cccc(C)c3C)CC2=O)cc1 (configuration not stated) | i | -1 | i | i | -4
CNC(=O)C1C2C=CC3(O2)C1C(=O)N(C1CC1)C3C(=O)NCc1ccc(OC)cc1 (configuration not stated) | i | -4 | i | i | 2
COc1ccc(CCNC(=O)C2CCCN(S(C)(=O)=O)C2)cc1OC (configuration not stated) | . | -10 | . | . | -2
CCOc1c(OC)cc(C2C(C#N)=C(N)Oc3n[nH]c(-c4ccncc4)c32)cc1OC (configuration not stated) | . | -2 | . | . | 1
COc1ccc(C(=O)c2ccc(OC)c(OC)c2)cc1OC | . | 3 | . | . | -4
CCOC(=O)N1CCN(C(=O)c2ccc3c(=O)n(-c4ccc(OC)cc4)c(=S)[nH]c3c2)CC1 | . | 2 | . | . | -1
O=C(CN1CCN(S(=O)(=O)c2ccc(Br)cc2)CC1)Nc1ccccc1F | . | 2 | . | . | 4
O=C(CCCN1C(=O)CSc2ncccc21)N1CCN(c2cccc(C(F)(F)F)c2)CC1 | . | 3 | . | . | 12
Cn1c(-c2ccccc2)cccc1=O | . | 0 | . | . | -2
CCOC(=O)N1CCC(NC(=O)CCS(=O)(=O)c2ccc3c(c2)CCN3C(=O)CC)CC1 | . | 1 | . | . | -3
CCOc1ccc(Cn2nnc(C(=O)NCc3ccc(OC)cc3)c2N)cc1 | i | 3 | i | i | 2
Cc1ccc(/C=c2\sc3nc(-c4ccccc4Br)nn3c2=O)o1 | i | 11 | i | i | -4
Cc1onc(-c2ccccc2)c1C(=O)Nc1cccc(C#N)c1 | . | 2 | . | . | -4
CN(CC(=O)N1CC(=O)N(CCc2ccccc2)C(=O)C1)S(=O)(=O)c1cccc2nsnc12 | . | 4 | . | . | 2
COc1cc(NC(=O)c2cc3c(=O)n(C)c4ccccc4c3n2C)cc(OC)c1OC | . | 3 | . | . | -3
CCC(C)(C(=O)NC1CCCC1)N(C(=O)CNC(C)=O)c1ccc(C)cc1 (configuration not stated) | . | -5 | . | . | 6
Cc1nc2c(C(=O)N3CCCCC3)cnn2c(C)c1Cc1ccccc1F | . | 2 | . | . | 3
CC1CCCCN1C(=O)Cn1nnc(-c2cccnc2)n1 (configuration not stated) | i | 2 | i | i | -3
O=C1OCCN1CCN(CN1C(=O)CCC1=O)CN1C(=O)CCC1=O | . | -3 | . | . | -4
CC(=O)c1ccc(NC(=O)CSc2nnc(NC(=O)CN3CCOCC3)s2)cc1 | . | -3 | . | . | 5
CN(C)C(=O)N1CCC(C(=O)NCc2ccccc2)CC1 | . | -3 | . | . | 2
CCCc1[nH]nc2c1C(c1cn[nH]c1-c1ccc(F)cc1)C(C#N)=C(N)O2 (configuration not stated) | i | 1 | i | i | 1
CSC1=NCCN1C(=O)c1ccc(S(=O)(=O)N2CCCC2)cc1 | i | 1 | i | i | 6
Cc1cc(=O)[nH]c(SCC(=O)c2ccc(C(C)C)cc2)n1 | . | 7 | . | . | -2
CC(=O)N1CCc2cc(S(=O)(=O)CCC(=O)NCc3ccc4c(c3)OCO4)ccc21 | . | -2 | . | . | 0
CCOC(=O)N1CCC(N2CC34C=CC(O3)C(C(=O)O)C4C2=O)CC1 (configuration not stated) | i | 5 | i | i | 1
C=CCSc1ncccc1C(=O)O | i | 8 | i | i | 0
CCOC(=O)c1cnn(CCOC(=O)c2cccs2)c1NC(=O)c1cccs1 | . | -3 | . | . | 4
Cc1ccc(NC(=O)CCC(=O)O)cc1F | i | 1 | i | i | -3
CC1Cc2nc(SCC(=O)Nc3ccc4c(c3)OCO4)n(-c3ccc(F)cc3)c(=O)c2S1 (configuration not stated) | i | 1 | i | i | -4
O=C(CN1CCN(Cc2ccccc2Cl)C1=O)N1CCCCCC1 | . | 8 | . | . | -3
Cc1nc(NC2=NCN(CCc3ccccc3)CN2)nc2c(C)cccc12 | i | -4 | 71 | 56% | 13
O=C1c2ccccc2C(=O)N1CC1c2ccccc2CCN1S(=O)(=O)c1cnc[nH]1 (configuration not stated) | . | 0 | . | . | 4
CCc1nn2c(N3CCOCC3)cc(C)nc2c1-c1ccc(F)cc1 | i | -1 | i | i | -2
COc1ccc(-c2nc(C#N)c(N3CCOCC3)o2)cc1OC | i | -1 | i | i | -1
CCN1C=C(Cc2cccs2)C2=C(C1)C(c1cccs1)C(C#N)=C(N)O2 (configuration not stated) | . | -7 | . | . | 6
Fc1cc(F)c2nc(N3CCOCC3)sc2c1 | . | 2 | . | . | -6
Cc1ccc(N2CCN(c3ccc(C)cc3)C(CC(=O)O)C2=O)cc1 (configuration not stated) | i | -5 | i | i | 4
Cc1ccccc1-n1c(=O)cc(N2CCN(C(=O)c3ccco3)CC2)[nH]c1=O | i | 0 | i | i | 4
CCOC(=O)C1CCN(CC(O)COc2ccc(C(C)=O)cc2)CC1 (configuration not stated) | . | 27 | . | . | 35*

Random excerpt: two entries already listed, in no set order.
Structure | VCAM-1 up imaging | FPRL1 ligand | VCAM-1 inhibition | VCAM-1 imaging | FPR binder
Cc1ccc(NC(=O)CCC(=O)O)cc1F | i | 1 | i | i | -3
CCc1nn2c(N3CCOCC3)cc(C)nc2c1-c1ccc(F)cc1 | i | -1 | i | i | -2

(listing goes on)
Structure | VCAM-1 up imaging | FPRL1 ligand | VCAM-1 inhibition | VCAM-1 imaging | FPR binder
O=C(CS(=O)(=O)c1cn(Cc2ccccc2Cl)c2ccccc12)N1CCOCC1 | . | 6 | . | . | 7
Cc1ccc(C(=O)N(CN2CCCC2=O)c2ccccc2)cc1C | . | 0 | . | . | -1
CC(=O)N1CCc2cc3nc(C)cc(C)c3cc21 | . | 0 | . | . | 0
CCCCn1nnnc1NCc1cccs1 | i | -2 | i | i | -4
O=C1CC(c2ccc(S(=O)(=O)NCc3ccccc3)cc2)CN1 (configuration not stated) | . | 10 | . | . | 0
CC(C)c1ccc(NC(=O)C2CCCCC2C(=O)O)cc1 (configuration not stated) | . | 1 | . | . | -7
